Compound activity deposited in PubChem BioAssay by National Center for Advancing Translational Sciences (NCATS).
miR-21 reporter – qHTS Assay for Modulators of miRNAs and/orActivators of miR-21. Potency, µM (series often up to 38.3 µM), without a hit: top-dose reporter change, positive = more light. HeLa miR-21 FLuc reporter, luciferase, 48 h. AID 2288, 2010. 340,000 tested, under 10 active; active = well fitted rising curve with a large enough effect; inconclusive = small, poorly fitted or top-dose-only effect; inactive = no such curve, though single readings can be large or run the other way;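 note: % of control where 0% means no effect; miR-21 action dims this reporter so a rising signal means less miR-21 action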
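HeLa cells stably expressing CMV-driven firefly luciferase with a downstream miR-21 binding sequence, endogenously expressing miR-21, were treated with titrations (up to about 40uM final) for 48 hours at 37 degree Celsius. Luciferase luminescence was read after lysis.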
Rango release inh – qHTS Assay for Inhibitors of RanGTP induced Rango (Ran-regulated importin-beta cargo) - Importin beta complex dissociation; AID 540253, 2011; 340,000 compounds, 0.071% hits; Biochemical FRET Rango-importin beta, RanGTP-induced dissociation; Potency, µM (series often up to 46.1 µM), for the others: at the top dose activity change, negative = inhibition; Snurportin-1 (Homo sapiens) + GTP-binding nuclear protein Ran (Homo sapiens) + Importin …; active means falling FRET ratio curve, often poorly fitted, with flat reads before Ran was added; inconclusive means other falling curves, or compound fluorescence or quenching; inactive means flat or rising ratio curve;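 note: potency is the fitted concentration of half-maximal effect; % of control where 0% means no effect; nearly all actives have a fitted effect of over 45% in size; -100% = wells without RanGTP and RCC1; the record marks most hits as doubtful in a second field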
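Recombinant Rango FRET biosensor (EYFP–snurportin 1 IBB–cerulean CFP10) at 0.1 uM premixed with 0.25 uM importin beta in PBS, 1 mM DTT, 0.02% Tween-20, 0.1% BSA. Compound added 5 min; RanGTP-RCC1 (0.6 uM Ran, 2 mM GTP, 0.2 uM RCC1) then triggers release, read at 45 min.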
Rango-impB inh – qHTS Assay for Inhibitors of Rango (Ran-regulated importin-beta cargo) - Importin beta complex formation | 340,000 compounds, 0.031% hits | Importin subunit beta-1 (Homo sapiens), Q14974 | Rango CFP/YFP FRET sensor + importin beta, 45 min | Potency, µM (series often up to 92.2 µM), inactives show at the highest dose inhibition of complex formation | AID 540263, 2011; active = rising FRET ratio curve, often small or poorly fitted; inconclusive = mostly compound fluorescence or quenching in the first reads; inactive = flat curves in all reads;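 note: potency is the fitted concentration of half-maximal effect; 0% = DMSO wells and 100% = buffer wells lacking importin beta; nearly all actives have a fitted effect of over 15% in size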
Target sequence (Q14974 whole entry, looked up): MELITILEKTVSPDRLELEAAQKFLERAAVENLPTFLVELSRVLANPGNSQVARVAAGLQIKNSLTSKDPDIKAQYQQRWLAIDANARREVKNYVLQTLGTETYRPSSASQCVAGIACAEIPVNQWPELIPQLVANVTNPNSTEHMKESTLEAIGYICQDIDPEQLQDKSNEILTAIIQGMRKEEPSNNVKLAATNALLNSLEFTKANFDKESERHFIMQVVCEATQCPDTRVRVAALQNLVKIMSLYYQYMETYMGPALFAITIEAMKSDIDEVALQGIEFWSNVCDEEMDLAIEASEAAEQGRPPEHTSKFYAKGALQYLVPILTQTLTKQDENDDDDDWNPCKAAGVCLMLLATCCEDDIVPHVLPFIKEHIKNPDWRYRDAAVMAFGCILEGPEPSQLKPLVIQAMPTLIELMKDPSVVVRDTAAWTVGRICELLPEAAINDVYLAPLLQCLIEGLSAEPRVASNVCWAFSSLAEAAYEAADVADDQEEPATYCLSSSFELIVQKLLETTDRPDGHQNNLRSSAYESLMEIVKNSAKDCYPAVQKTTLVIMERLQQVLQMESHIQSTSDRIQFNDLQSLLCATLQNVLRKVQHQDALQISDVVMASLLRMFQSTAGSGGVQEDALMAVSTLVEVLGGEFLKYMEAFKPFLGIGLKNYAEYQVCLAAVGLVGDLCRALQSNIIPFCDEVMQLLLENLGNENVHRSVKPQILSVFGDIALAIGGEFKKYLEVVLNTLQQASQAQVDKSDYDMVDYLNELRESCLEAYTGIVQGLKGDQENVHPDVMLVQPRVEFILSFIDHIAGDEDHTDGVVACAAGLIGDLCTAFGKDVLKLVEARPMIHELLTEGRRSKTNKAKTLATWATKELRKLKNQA
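FRET biosensor Rango (snurportin 1 IBB between N-terminal EYFP and C-terminal Cerulean), 50 nM in PBS/1 mM DTT/0.02% Tween-20/0.1% BSA, preincubated 5 min RT with compound; 0.125 microM importin beta added, 45 min RT, CFP/YFP FRET ratio read.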
GLA inh pH 4.5 – qHTS Assay for Inhibitors of Human alpha-Galactosidase at pH 4.5. Alpha-galactosidase A (Homo sapiens), P06280. activity change, negative = inhibition, % at 105 µM. 230,000 tested, under 10 active. purified enzyme, 4-MU-alpha-Gal fluorescence, pH 4.5. AID 1467, 2008; inconclusive = small, poorly fitted or top-dose-only inhibition, or a rising curve; inactive = flat fitted curve, though single readings scatter; no compound was filed as active;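 note: 0% = full activity with enzyme and -100% = basal without enzyme; dose as in the result columns while the protocol names 77 µM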
An asterisk follows results filed as active; ? = inconclusive; / = no result given; & = joins results of further samples. This is a subset, so the mix of outcomes need not match the whole.

SMILES	miR-21 reporter	Rango release inh	Rango-impB inh	GLA inh pH 4.5
CNc1ccc(C(=O)OCC(=O)NC(=O)NC2CCCC2)cc1[N+](=O)[O-]	/	-12%	7.1%	/
CCOc1ccc(NC(=O)CC2C(=O)N(c3ccc(OC)cc3)C(=O)N2CCc2ccc(OC)c(OC)c2)cc1 (centres undefined)	10%	4%	-2.1%	-4
COc1ccccc1CNc1ncc(-c2ccc(F)cc2)n1C	-7%	-11%	?	/
O=C(c1cc(-c2ccccc2)nn1-c1ccccc1)N1CCN(S(=O)(=O)c2ccc(F)cc2)CC1	/	0%	1.8%	/
CCCn1ncc(C(=O)N(C)C2CCCN(Cc3ccccc3F)C2)c1C (centres undefined)	-6%	-21%	0.0%	/
CC(=O)Nc1ccc(S(=O)(=O)NCC2CCC(C(=O)NCc3ccccc3)CC2)cc1 (centres undefined)	-6%&-2%	8%	0.8%	-7
Cc1ccc(S(=O)(=O)NC(=O)Nc2ccc(C)cn2)cc1	-5%	1%	-3.7%	/
COc1cc2cccc(OC)c(=O)c2c(O)c1OC	-58%	-13%	-1.3%	-3
CCN1CCN(c2ccc(S(=O)(=O)N3CCCCC3)cc2NC(=O)Cc2ccc(Cl)c(Cl)c2)CC1	/	4%	0.7%	/
O=C(COC(=O)c1ccc(Sc2ccccc2)c([N+](=O)[O-])c1)NC1CCS(=O)(=O)C1 (centres undefined)	-5%	2%	0.5%	-10
Nc1c(C(=O)c2ccccc2)sc2snc(SCC(=O)c3ccccc3)c12	-45%	?	?	-2
O=C(CSc1nnc(-c2ccccn2)o1)Nc1ccccc1F	-26%	0%	0.7%	/
CCOC(=O)c1sc2nc(C)nc(SCC(=O)NC3CCS(=O)(=O)C3)c2c1C (centres undefined)	-1%	9%	0.3%	2
O=C(Nc1ccc2c(c1)OCO2)O[C@@H]1C[C@H]2CCCC(=O)N3CC[C@@H](C1)[C@@H]23	-10%	-1%	0.7%	/
CCN1C(=O)[C@H]2[C@@H](c3ccc(C)cc3)N3C(=O)N(c4cccc(F)c4)C(=O)[C@@]3(Cc3ccc(Cl)cc3)[C@H]2C1=O	/	-4%	1.9%	/
COc1ccc(C)cc1S(=O)(=O)N1CCN(C(=O)c2ncoc2-c2ccc(F)cc2)CC1	9%	-21%	8.7%	/
O=C(CN1CCOCC1)c1c[nH]c2ccccc12	-7%	?	?	-2
CC(=O)N1CC=C2C(C#N)=C(N)C(C#N)(C#N)C(CCc3ccccc3)C2C1 (centres undefined)	3%	?	?	2
COCCCNc1ccnc2c(Cl)cccc12	5%	1%	-1.8%	1
CCOc1ncccc1C(=O)Oc1ccc2c(c1)OCO2	-10%	13%	-0.4%	-1
Cc1ccc(-n2nnnc2SCC(=O)Nc2cc(C)on2)c(C)c1	4%	-3%	-1.7%	/
O=C(COC(=O)/C=C/c1ccc(Cl)cc1Cl)Nc1ccc2c(c1)OCCO2	-3%	5%	0.4%	5
COc1ccc(C2=NN(CCC(=O)NC3CCCCCC3)C(=O)CC2)cc1	-6%	-3%	-0.8%	/
COC(=O)c1cn(Nc2ncc(C(F)(F)F)cc2Cl)c(=O)c2ccccc12	15%	3%	1.9%	3
O=C(NCCc1c[nH]c2ccccc12)c1cc2ccccc2oc1=O	-43%	0%	0.4%	-10

Grouped by structure: those above with a nitro group on carbon.
SMILES	miR-21 reporter	Rango release inh	Rango-impB inh	GLA inh pH 4.5
CNc1ccc(C(=O)OCC(=O)NC(=O)NC2CCCC2)cc1[N+](=O)[O-]	/	-12%	7.1%	/
O=C(COC(=O)c1ccc(Sc2ccccc2)c([N+](=O)[O-])c1)NC1CCS(=O)(=O)C1 (centres undefined)	-5%	2%	0.5%	-10

Random excerpt: two entries already listed, in no set order.
SMILES	miR-21 reporter	Rango release inh	Rango-impB inh	GLA inh pH 4.5
Cc1ccc(-n2nnnc2SCC(=O)Nc2cc(C)on2)c(C)c1	4%	-3%	-1.7%	/
CCOc1ncccc1C(=O)Oc1ccc2c(c1)OCO2	-10%	13%	-0.4%	-1

Ordered by formula weight (ascending): some entries from above.
SMILES	miR-21 reporter	Rango release inh	Rango-impB inh	GLA inh pH 4.5
COc1cc2cccc(OC)c(=O)c2c(O)c1OC	-58%	-13%	-1.3%	-3
O=C(CSc1nnc(-c2ccccn2)o1)Nc1ccccc1F	-26%	0%	0.7%	/
CCCn1ncc(C(=O)N(C)C2CCCN(Cc3ccccc3F)C2)c1C (centres undefined)	-6%	-21%	0.0%	/
COC(=O)c1cn(Nc2ncc(C(F)(F)F)cc2Cl)c(=O)c2ccccc12	15%	3%	1.9%	3
COc1ccc(C)cc1S(=O)(=O)N1CCN(C(=O)c2ncoc2-c2ccc(F)cc2)CC1	9%	-21%	8.7%	/

Continued.
SMILES	miR-21 reporter	Rango release inh	Rango-impB inh	GLA inh pH 4.5
O=c1cc(CSc2ccccn2)[nH]c(=O)[nH]1	-3%	-18%	-0.9%	-5
COC(=O)c1[nH]c2cc(OC)ccc2c1NC(=O)CCN1CCN(c2ccccc2)CC1	-15%	-10%	2.2%	3
O=C1N(Nc2ccccc2)C(c2ccc(Br)cc2)C12CCCC2 (centres undefined)	-7%	-5%	-1.9%	2
COc1cc(-c2n[nH]c(=S)n2-c2ccc(C)cc2)cc(OC)c1OC	-1%	-1%	-1.8%	-5
CCc1cc(=O)oc2cc(C)cc(OC(C)C(=O)NCCCN3CCCC3=O)c12 (centres undefined)	-7%	-4%	0.0%	/
O=C(NCC(O)c1ccc2ccccc2c1)c1c(F)cccc1F (centres undefined)	5%	-3%	-1.3%	/
Cc1ccc(C)c(OCC(=O)Nc2cccc(C(=O)O)c2)c1C	-54%	-5%	0.8%	4
O=C1CCCN1CCCNc1ncccc1[N+](=O)[O-]	-1%	0%	1.9%	/
CC(C)(C)N(C(=O)Cn1nnc(-c2ccc(F)cc2)n1)C(C(=O)NC1CCCC1)c1ccncc1 (centres undefined)	-2%	-8%	-0.3%	-15
O=C(Nc1ccc(OC(F)(F)F)cc1)c1ccc(-n2cncn2)nc1	0%	-2%	3.9%	7
Cc1cc(-c2ccccc2N)n[nH]1	-16%	3%	0.0%	0
CCOC(=O)CSc1nnc(CNC(=O)c2ccc(OC)c(OC)c2)n1C	0%	8%	5.8%	-2
O=C(COc1ccc(F)cc1Cl)N1CCN(C(=O)c2cccs2)CC1	/	-4%	-0.3%	/
CCOc1cc(N2CCOCC2)c(OCC)cc1NC(=O)COc1cccc(Cl)c1	/	-10%	0.2%	/
Cc1cc(=O)oc2cc(OCC(=O)NCCc3nc4ccccc4[nH]3)ccc12	5%	?	?	-4
CSCCC(NC(=O)C1CCC(C)CC1)C(=O)NCc1ccco1 (centres undefined)	-2%	-11%	0.1%	2
Cc1ccc(NC(=S)Nc2cccc3ccccc23)cc1	-45%	-4%	-3.5%	/
CN(C)C(=O)CNC(=O)C1CCCCC1	-2%	7%	-0.3%	4
Cc1nnc(SCCn2c(N3CCC(Cc4ccccc4)CC3)nc3c2c(=O)[nH]c(=O)n3C)s1	-4%	13%	0.1%	6
O=C(Nc1ccccc1C(=O)N1CCCC1)c1ccccc1	-3%	-10%	-3.5%	-6
CC(=O)Nc1sc2c(c1C(N)=O)CCCC2	1%	3%	-1.6%	7
CCc1nc(N2CCN(C(=S)NCCCOC)CC2)c2c3c(sc2n1)CCCC3	?	-10%	-1.1%	/
CNC(=O)COC(=O)/C=C/c1nc2ccccc2s1	-2%	-1%	-1.8%	-1
O=C(NCCCN1CCCC1=O)c1c(O)nc2ccccn2c1=O	0%	-21%	-3.9%	/
Clc1ccc(C(CCN2CCCC2)Cc2ccccc2)cc1 (centres undefined)	-1%	27%	2.6%	/
SMILES	miR-21 reporter	Rango release inh	Rango-impB inh	GLA inh pH 4.5
CC(NC(=O)NC(N)=O)(C(F)(F)F)C(F)(F)F	-3%	13%	-1.8%	10
CCc1nnc2n1N=C(c1cccc([N+](=O)[O-])c1)CS2	7%	-4%	1.4%	1
CSc1ncccc1C(=O)NC1CCCCCCC1	-17%	12%	2.7%	/
Cc1scc(C(=O)NNC(=S)NCC2CCCO2)c1-c1ccccc1 (centres undefined)	-5%	17%	0.1%	1
CCOc1ccc(/C(O)=C2/C(=O)C(=O)N(CCN(CC)CC)C2c2cccs2)cc1 (centres undefined)	-27%	-9%	?	2
COc1cc(OC)c2c(-c3ccccc3)cc(=O)oc2c1C(CC(=O)N1CCOCC1)c1ccc2c(c1)OCO2 (centres undefined)	0%	13%	0.1%	-4
O=C(CCSc1nc(-c2ccco2)cc(C(F)(F)F)n1)N1CCN(c2ccccn2)CC1	-3%	-22%	2.2%	-13
O=C1c2cccc3cccc(c23)C(=O)N1c1cccc(O)c1	-13%	35%	-5.4%	/
CC(C)(C)NC(=O)CN(Cc1cccs1)C(=O)CCC(=O)Nc1nccs1	-7%	3%	2.7%	12
O=C(CN1CCN(C(c2ccccc2)c2ccccc2)CC1)N1N=CCC1c1ccccc1 (centres undefined)	0%	12%	1.3%	-5
FC(F)(F)c1ccc(CN2C[C@@H]3C(c4ccc(Cl)nc4)C4(c5ccccc5)CC3(C4)[C@H]2c2ccccc2)cc1 (some centres undefined)	13%	?	-4.9%	2&-5
CCn1c(SC)nc(O)c(C(c2ccc(OC)c(O)c2)c2c(O)nc(SC)n(CC)c2=O)c1=O	-6%	37%	2.4%	5
c1ccc(-c2nccc3ccccc23)cc1	/	5%	2.7%	/
COc1ccc(N2CCN(C(=O)CSc3nc4[nH]ncc4c(=O)n3-c3ccc(Br)cc3)CC2)cc1	16%	?	?	-16
COc1ccc(-n2nnnc2SCC(=O)Nc2ccccc2)cc1	-11%	-12%	-1.9%	-16
CNC(=S)SCCOc1ccccc1C	4%	21%	-1.8%	-6
CC(NC(=O)COC(=O)C1CCCCC1)c1ccccc1 (centres undefined)	/	-14%	1.1%	/
C=C(C)c1cccc(C(C)(C)NC(=O)N2CCCC(C(N)=O)C2)c1 (centres undefined)	1%	7%	-3.2%	2
COc1cccc(C(=O)Nc2cccc(S(=O)(=O)NC3=NCCC3)c2)c1	/	12%	0.8%	/
CC(C)CC(=O)Nc1c2c(nn1-c1cccc(Cl)c1)CS(=O)C2 (centres undefined)	2%	1%	-0.5%	/
CC1CCC2(CC1)NC(=O)N(CC(=O)Nc1cccc(S(=O)(=O)N3CCOCC3)c1)C2=O (centres undefined)	-22%	8%	2.5%	-2
Cc1ccc(S(=O)(=O)CCC(=O)OC(C)C(=O)c2c(C)[nH]c3ccccc23)cc1 (centres undefined)	-1%	2%	0.6%	-8
CC(C)(C)Cc1nnc(NC(=O)c2ccc3c(c2)OCO3)s1	-40%	-11%	-0.6%	/
COc1ccc(S(=O)(=O)N2CCOCC2)cc1NC(=O)CSc1n[nH]c(=O)n1C1CC1	-11%	0%	?	9
O=C(N/N=C/c1ccc(Cl)c([N+](=O)[O-])c1)c1cc(-c2ccccc2)nc2ccccc12	1%	1%	-0.5%	-4
COc1ccc(C2CC(c3ccccc3)=NN2c2ccc(Cl)c(C(=O)O)c2)cc1 (centres undefined)	-35%	?	?	?
O=C(NCCC1CCCCN1S(=O)(=O)c1ccccc1)C(=O)NC1CC1 (centres undefined)	/	4%	0.3%	/
c1ccc2c(c1)nc1sccn12	-5%	-8%	-0.6%	-8

Look-ups from the list:
For miR-21 reporter, C=C(C)c1cccc(C(C)(C)NC(=O)N2CCCC(C(N)=O)C2)c1 (centres undefined) is entered as 1%
For Rango-impB inh, Cc1scc(C(=O)NNC(=S)NCC2CCCO2)c1-c1ccccc1 (centres undefined) is entered as 0.1%
